Assay outcomes as filed in PubChem.
RVFV N-RNA FP = inhibitors of RVFV nucleoprotein–RNA binding, primary screen, biochemical, fluorescence polarization. P21700. RVFV N-RNA binding; stronger effect = lower value. % bound, % (no concentration beside the values). 20,000 tested, 0.1% active;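 active means between 0 and 58% in either replicate with normal brightness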;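 further: 100 nL library stock added to about 12 µL; 100% = protein and probe without compound and 0% = probe alone; numbers are from one replicate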
Target sequence (P21700 whole entry, looked up): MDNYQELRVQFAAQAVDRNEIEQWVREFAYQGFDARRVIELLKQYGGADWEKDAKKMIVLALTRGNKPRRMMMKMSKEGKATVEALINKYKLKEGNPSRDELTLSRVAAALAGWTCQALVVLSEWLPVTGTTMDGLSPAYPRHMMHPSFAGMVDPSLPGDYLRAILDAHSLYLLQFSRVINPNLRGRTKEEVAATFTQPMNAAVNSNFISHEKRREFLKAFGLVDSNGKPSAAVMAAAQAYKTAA
* marks the source's active call; other numbers are inactive results; & = joins results of further samples.

`COc1ccc2cc3c(nc2c1)OCC3` gave RVFV N-RNA FP 92.
`COc1ccc2[nH]cc(CN(C)C)c2c1` gave RVFV N-RNA FP 108.
O=c1oc2c(ccc3c(O)cccc32)c2c1CCCC2 was read as RVFV N-RNA FP 94.
CC1(N(O)/C=C2/C=CC=N2)CCCCC1=O (stereo not drawn) was read as RVFV N-RNA FP 85.
Nc1nc(SCC(=O)OC2CCCC2)n[nH]1 was read as RVFV N-RNA FP 98.
`O=C(COc1ccc(F)c(Cl)c1)n1cccn1` gave RVFV N-RNA FP 91.
Cc1csc(SCc2cc(=O)c(OC(=O)c3ccco3)co2)n1 was read as RVFV N-RNA FP 88.
CCOC(=O)c1cc(C#N)c(N2CCN(S(=O)(=O)c3ccccc3)CC2)nc1C(F)(F)F was read as RVFV N-RNA FP 95.
C=C(C)C(C)(C#CCN1CCCC1)OC(C)=O (stereo not drawn) was read as RVFV N-RNA FP 96.
`N#C/C(=C/c1cn(CCC(N)=O)c2ccccc12)c1ccc(C#N)cc1` gave RVFV N-RNA FP 95.
O=C(NCCc1cn2ccccc2n1)C1CCCCC1 was read as RVFV N-RNA FP 98.
For Cc1cc(=O)oc2c(C)c(OC(=O)c3ccco3)ccc12 the results were RVFV N-RNA FP 104.
C=CCNC(=O)c1ccccc1NC(=O)c1ccc(OC)cc1 was read as RVFV N-RNA FP 86.
O=C(Nc1ccc(-c2nc3ccccc3o2)cc1)c1ccc(Br)o1 was read as RVFV N-RNA FP 97.
COC(=O)c1ccc(NC(=O)C(C)Sc2ncn(-c3ccccc3)n2)cc1 (stereo not drawn) was read as RVFV N-RNA FP 92.
For Cc1c(F)cccc1NC(=O)OCc1ccccc1 the results were RVFV N-RNA FP 93.
`O=C(O)CSCC(=O)N1CCN(c2ccc(F)cc2)CC1` gave RVFV N-RNA FP 96.
CCC(Oc1ccccc1)C(=O)N(C)C (stereo not drawn) was read as RVFV N-RNA FP 90.
Cc1ccc2nc(NNC(=O)c3ccc(S(=O)(=O)N4CC(C)OC(C)C4)cc3)sc2c1 (stereo not drawn) was read as RVFV N-RNA FP 98.
For CC(C)(C)N1C(=O)c2ccc(C(=O)Nc3ccccc3C(=O)O)cc2C1=O the results were RVFV N-RNA FP 91.
Screening CO/N=C(\C(=O)N[C@@H]1C(=O)N2C(C(=O)O)=C(COC(C)=O)CS[C@H]12)c1csc(N)n1 returned RVFV N-RNA FP 98.
O=C(NC1CN2CCC1CC2)c1cc2ccoc2cn1 (stereo not drawn) was read as RVFV N-RNA FP 102.
Screening O=C(NC(=O)c1ccccc1)NC1CCCC1 returned RVFV N-RNA FP 97.
`CCCCC(=O)Nc1nnc(-c2ccc(C)c(C)c2)o1` gave RVFV N-RNA FP 95.
O=C1NC(=S)S/C1=C\c1cn(CC(=O)N2CCOCC2)c2ccccc12 was read as RVFV N-RNA FP 114.
O=C(CC1SC(=O)N(c2ccccc2)C1=O)Nc1ccccc1 (stereo not drawn) was read as RVFV N-RNA FP 96.
For NC(=O)C1CCN(C2=NC(=O)/C(=C\c3ccc(Br)cc3)S2)CC1 the results were RVFV N-RNA FP 99.
For CCOc1ccc(C2SC[C@H](C(=O)O)N2C(C)=O)cc1 (stereo partly drawn) the results were RVFV N-RNA FP 99.
`N/C(=N\N=C\c1cccs1)SCc1ccccc1` gave RVFV N-RNA FP 96.
For O=C(CN1CCc2ccccc2C1)Nc1ccccc1 the results were RVFV N-RNA FP 95.
For CN(Cc1cc(Br)cc(Br)c1N)C1CCCCC1 the results were RVFV N-RNA FP 98.
`NC1[C@H]2CN(c3nc4c(cc3F)c(=O)c(C(=O)O)cn4-c3ccc(F)cc3F)C[C@@H]12` (stereo partly drawn) gave RVFV N-RNA FP 100.
O=C(c1ccc(CS(=O)(=O)c2ccccc2)cc1)N1CCCC1 was read as RVFV N-RNA FP 98.
NC(=O)CSc1nc(N)c(NC(=O)c2cccs2)c(=O)[nH]1 was read as RVFV N-RNA FP 90.
Screening Cc1cccc(S(=O)(=O)NCc2cn3ccsc3n2)c1 returned RVFV N-RNA FP 94.
`O=c1[nH]c(=S)nc2cc[nH]n12` gave RVFV N-RNA FP 101.
`Cc1cc(C)cc(NC(=O)N(CCC#N)Cc2ccccc2)c1` gave RVFV N-RNA FP 95.
`c1ccc(C(CN2CCOCC2)c2ccccc2)cc1` gave RVFV N-RNA FP 100.
`O=C1S/C(=C\C=C\c2ccco2)C(=O)N1c1ccccc1` gave RVFV N-RNA FP 99.
`N/C(CSc1cccs1)=N\OC(=O)Nc1ccccc1` gave RVFV N-RNA FP 89.
`Cc1ccc(Sc2oc(/C=N/n3cnnc3)cc2Br)cc1` gave RVFV N-RNA FP 96.
`Cc1nc2sc(C(c3ccccc3Cl)N(C)Cc3ccccc3)c(O)n2n1` (stereo not drawn) gave RVFV N-RNA FP 108.
Screening O=C(c1cc2c(s1)CCCCCC2)N1CCC2(CC1)OCCO2 returned RVFV N-RNA FP 102.
`O=C1CC(=O)c2ccc3c4c(ccc1c24)C(=O)CC3=O` gave RVFV N-RNA FP 81.
For CC1(C)CC(=O)C(Sc2ccc(Br)cc2)=C(O)C1 the results were RVFV N-RNA FP 95.
Screening O=C(O)c1nn(-c2ccc(Cl)cc2Cl)c(=O)cc1O returned RVFV N-RNA FP 91.
Screening COc1ccc(C2=NN3C(=O)c4c(ccc(OC)c4OC)C3C2)cc1 (stereo not drawn) returned RVFV N-RNA FP 92.
Cn1sc(=O)n(Cc2ccccc2)c1=O was read as RVFV N-RNA FP 103.
For Oc1cc(O)c2ncccc2c1 the results were RVFV N-RNA FP 95.
`Cc1ccc2nc(/C(C#N)=C\C3CC4C=CC3C4)[nH]c2c1` (stereo not drawn) gave RVFV N-RNA FP 96.
Cn1c(=O)n(C)c2cc(/C=N/NC(=O)Nc3ccccc3)ccc21 was read as RVFV N-RNA FP 93.
Screening Cc1c(C(=O)Nc2ccccc2Cl)oc2c1C(O)CC(C)(C)C2 (stereo not drawn) returned RVFV N-RNA FP 88.
N#CC(C#N)=C1CCc2ccccc21 was read as RVFV N-RNA FP 103.
O=C1CC(NNc2ccccc2)C(=O)N1 (stereo not drawn) was read as RVFV N-RNA FP 104.
`Cc1cccn2c(=O)c(/C=N/O)c(Nc3ccc(Cl)cc3)nc12` gave RVFV N-RNA FP 93.
O=C1CCCC2=C1C(c1ccncc1)Nc1ccccc1N2 (stereo not drawn) was read as RVFV N-RNA FP 102.
Screening NC(=O)c1ccccc1Sc1ccccc1C(N)=O returned RVFV N-RNA FP 93.
Screening FC(F)(F)c1cc(Cl)c2nc(-c3n[nH]c(=S)o3)cn2c1 returned RVFV N-RNA FP 93.
For CCCCC(=O)Nc1ccc(I)c(C)n1 the results were RVFV N-RNA FP 102.
Screening O=C(c1ccc(S(=O)(=O)N2CCOCC2)o1)N1CCOCC1 returned RVFV N-RNA FP 92.

An excerpt from above in order of count of non-hydrogen atoms, ascending.
For Oc1cc(O)c2ncccc2c1 the results were RVFV N-RNA FP 95.
Screening NC(=O)c1ccccc1Sc1ccccc1C(N)=O returned RVFV N-RNA FP 93.
Screening FC(F)(F)c1cc(Cl)c2nc(-c3n[nH]c(=S)o3)cn2c1 returned RVFV N-RNA FP 93.
`Cc1ccc2nc(/C(C#N)=C\C3CC4C=CC3C4)[nH]c2c1` (stereo not drawn) gave RVFV N-RNA FP 96.
O=C1CCCC2=C1C(c1ccncc1)Nc1ccccc1N2 (stereo not drawn) was read as RVFV N-RNA FP 102.
Screening Cc1c(C(=O)Nc2ccccc2Cl)oc2c1C(O)CC(C)(C)C2 (stereo not drawn) returned RVFV N-RNA FP 88.

Continued:
For Cc1cc(NC(=O)CN2C(=O)CCC2=O)no1 the results were RVFV N-RNA FP 94.
CCOC(=O)C1C(=O)NC(N2CCOCC2)=NC1c1ccccc1 (stereo not drawn) was read as RVFV N-RNA FP 91.
For O=C(Nc1ccccc1)Nc1ccccc1N1CCOCC1 the results were RVFV N-RNA FP 99.
Screening OC(c1ccccc1)(c1ccccc1)C1CCN(C(=S)NCc2ccco2)CC1 returned RVFV N-RNA FP 107.
Screening c1cncc(CSc2ccc3nnc(-c4cccnc4)n3n2)c1 returned RVFV N-RNA FP 90.
CCc1cc2c(SCC(N)=O)ncnc2s1 was read as RVFV N-RNA FP 114.
For COc1ccccc1N1CCN(/C=C2/SC(=S)NC2=O)CC1 the results were RVFV N-RNA FP 99.
`O=c1[nH]cnc2scc(-c3cccs3)c12` gave RVFV N-RNA FP 99.
CCOc1ccc2ncc(C(=O)c3ccc(OC)cc3)c(N3CCN(C)CC3)c2c1 was read as RVFV N-RNA FP 96.
`O=C(CSc1ccc(Cl)cc1)N=C1NC(=O)CS1` gave RVFV N-RNA FP 103.
COc1ccc(CNn2c(C)n[nH]c2=S)cc1 was read as RVFV N-RNA FP 96.
Screening O=C(Nc1sc2c(c1-c1nc3ccccc3s1)CCCC2)C1=COCCO1 returned RVFV N-RNA FP 100.

2 successive records from above, for reference:
COc1ccc(CNn2c(C)n[nH]c2=S)cc1 was read as RVFV N-RNA FP 96.
Screening O=C(Nc1sc2c(c1-c1nc3ccccc3s1)CCCC2)C1=COCCO1 returned RVFV N-RNA FP 100.

Following part.
CCOC(=O)CN(C)c1nc(-c2ccc(OC)c(OC)c2)cs1 was read as RVFV N-RNA FP 98.
CNc1nc(Oc2ccc(=O)n(C)n2)nc(SC)n1 was read as RVFV N-RNA FP 90.
Screening CC(=O)OCc1nc2ccccc2s1 returned RVFV N-RNA FP 90.
For C/C(Cn1c(=O)oc2ccccc21)=N\OC(=O)c1ccc(Cl)cc1 the results were RVFV N-RNA FP 81.
Screening COc1ccc(-c2nc3c(n2O)CCC/C3=N\O)cc1 returned RVFV N-RNA FP 92.
For COC(=O)CC1SC(=O)NC1=Nc1cccc(C)c1 (stereo not drawn) the results were RVFV N-RNA FP 98.
For COCCSc1nnc(NS(=O)(=O)c2ccccc2)s1 the results were RVFV N-RNA FP 98.
Screening CCC(CC)C(=O)Nc1ncc2c(n1)CC(C)CC2=O (stereo not drawn) returned RVFV N-RNA FP 97.
Screening O=C(CCCc1ccccc1)NN1CCOCC1 returned RVFV N-RNA FP 98.
`O=C1NC(=O)N(Cc2ccccc2)C(=O)/C1=C\N1CCCc2ccccc21` gave RVFV N-RNA FP 98.
COc1ccc(CN2CCOCC2)cc1C was read as RVFV N-RNA FP 99.
For CSc1nc(C)nc(N/C=C(\C#N)C(=O)C2CC2)n1 the results were RVFV N-RNA FP 98.
For CN(Cc1ccccc1)Cc1c(O)ccc2c(=O)c(-c3ccccc3)coc12 the results were RVFV N-RNA FP 97.
Screening NC(=S)NN=C1CCCCC1 returned RVFV N-RNA FP 86.
For c1ccc(C(N2CCOCC2)N2CCOCC2)cc1 the results were RVFV N-RNA FP 91.
O=C(COc1ccccc1)NNc1nc2c(F)cccc2s1 was read as RVFV N-RNA FP 95.
`CC(C)(C)CC(=O)NC(C)(C)C` gave RVFV N-RNA FP 97.
`O=C(O)Cn1nnc(N2CCCC2)n1` gave RVFV N-RNA FP 92.
For Cc1onc(-c2c(Cl)cccc2Cl)c1NC(=O)NNc1cc(Cl)ccc1Cl the results were RVFV N-RNA FP 85.
CC(C)(O)P(C)(=O)c1ccccc1 (stereo not drawn) was read as RVFV N-RNA FP 96.
For CCN(CC)C(=O)c1ccc(O)c(OC)c1 the results were RVFV N-RNA FP 104.
O=C(CCS(=O)(=O)Cc1ccccc1)N1CCN(c2ccccc2)CC1 was read as RVFV N-RNA FP 96.
For Brc1cccc(-c2nnc3sc(CNC4CCCC4)cn23)c1 the results were RVFV N-RNA FP 94.
`COC(=O)c1sc(S(=O)(=O)NCc2ccccc2)c(C(=O)OC)c1C` gave RVFV N-RNA FP 90.

2 compounds drawn at random from those above:
Screening O=C(O)c1nn(-c2ccc(Cl)cc2Cl)c(=O)cc1O returned RVFV N-RNA FP 91.
CCOC(=O)C1C(=O)NC(N2CCOCC2)=NC1c1ccccc1 (stereo not drawn) was read as RVFV N-RNA FP 91.

Carrying on.
For CCOc1ccc(N2C(=O)CC(SCc3nc4ccccc4[nH]3)C2=O)cc1 (stereo not drawn) the results were RVFV N-RNA FP 112.
NC(=O)Cn1cnc2c(cnn2CCO)c1=O was read as RVFV N-RNA FP 100.
Screening O=C1NC2c3ccccc3C(=O)N2c2ccccc21 (stereo not drawn) returned RVFV N-RNA FP 94.
CC(=NCc1ccc(C#N)cc1)c1c(C)cc(C)cc1O was read as RVFV N-RNA FP 97.
`COC(=O)C(O)(CC(=O)Nc1cccc(SC)c1)C(F)(F)F` (stereo not drawn) gave RVFV N-RNA FP 97.
For CCn1nc(C)c(C(C#N)N2N=C(C)CC2c2ccccc2)c1C (stereo not drawn) the results were RVFV N-RNA FP 97.
For CCN1CCN(C(c2cccs2)C(C)NC(=O)c2ccccc2)CC1 (stereo not drawn) the results were RVFV N-RNA FP 99.
For O=C(NCC(c1cccnc1)N1CCOCC1)c1ccc2c(c1)OCO2 (stereo not drawn) the results were RVFV N-RNA FP 95.
Screening CC1(C)CC(=O)C(N=Nc2ccc3c(c2)OCO3)=C(O)C1 returned RVFV N-RNA FP 93.
Screening COc1ccc(-c2csc(S(C)=O)c2C#N)cc1 (stereo not drawn) returned RVFV N-RNA FP 100.
COCCOC(=O)C1=C(C)NC(C)=C(C(=O)OC(C)C)C1c1cccc([N+](=O)[O-])c1 (stereo not drawn) was read as RVFV N-RNA FP 93&95&91.
Screening COc1ccc(CC(=O)NCc2n[nH]c(=S)n2-c2cccc(C)c2)cc1 returned RVFV N-RNA FP 93.
For CC(C)C(=O)NC(=S)Nc1ccc(-c2nc3ncccc3o2)cc1 the results were RVFV N-RNA FP 95.
O=c1onc2cnc3ccccc3n12 was read as RVFV N-RNA FP 93.
`O=C1Nc2ccccc2-c2ccccc2N1` gave RVFV N-RNA FP 100.
Screening CC[C@H](C)C(=O)O[C@H]1C[C@H](O)C=C2C=C[C@H](C)[C@H](CC[C@@H](O)C[C@@H](O)CC(=O)O)[C@H]21 returned RVFV N-RNA FP 93.

Some of the compounds tested; count on the stated rates, not on these rows.
